Compound activity: PubChem, ICCB-Longwood Screening Facility, Harvard Medical School
HCMV NEC inh: cytomegalovirus nuclear egress complex inhibition; HTRF UL50-UL53 interaction, normalized percent inhibition; inhibition, % (no concentration beside the values); 190,000 tested, 0.15% active; AID 1918969;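 active = both replicates at 50% or more, plus weaker picks with an unusually low signal ratio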;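 also: stock transfer was 100 nL into about 20 µL; 0% = negative control wells and 100% = wells with untagged competitor protein; inactives centre near -12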
GIV-Gai inh: blocks GIV peptide binding to rat Galpha-i3; Galpha-i3/FITC-GIV peptide fluorescence polarization, 90 min; hits give low values; scaled: aluminum fluoride 0%, vehicle 100%; percent of control (FP), % (test concentration not listed); 210,000 tested, 0.42% active;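 active = replicate mean at 85% of control or lower, very high polarization wells dropped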;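 also: wells of about 15 µL received 100 nL stock; the first replicate is given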
Target sequence (P08753 whole entry, looked up): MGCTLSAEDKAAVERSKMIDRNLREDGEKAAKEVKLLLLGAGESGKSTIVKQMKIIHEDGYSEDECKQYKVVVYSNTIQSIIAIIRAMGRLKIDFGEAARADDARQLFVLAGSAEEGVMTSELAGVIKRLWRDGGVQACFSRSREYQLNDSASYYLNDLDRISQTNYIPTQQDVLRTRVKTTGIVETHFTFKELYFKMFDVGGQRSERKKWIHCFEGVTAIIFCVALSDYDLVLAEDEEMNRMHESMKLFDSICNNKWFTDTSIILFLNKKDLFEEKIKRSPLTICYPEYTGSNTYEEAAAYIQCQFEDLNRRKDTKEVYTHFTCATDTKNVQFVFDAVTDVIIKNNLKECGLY
Sa growth 42C: S. aureus growth inhibition | S. aureus RN4220 growth, OD600, 20 h, 42 °C; hits give low values | relative growth, % (test concentration not listed) | 170,000 tested, 0.53% active | AID 720641;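 active = growth at 42 °C up to 50% and 20 or more points under that at 30 °C, or under 10% at both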;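 also: 300 nL library stock went into each well; scaled to the means of positive and negative controls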
Sa growth 42C second temp: also measured in Sa growth 42C; calls as there; relative growth, %; measured here: growth at 30 °C;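 optical density after 20 h as mean of two plates; 100% = untreated growth and lower means inhibition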
Numbers without * were called inactive; nt = no result given; & = joins results of further samples.

Structure,HCMV NEC inh,GIV-Gai inh,Sa growth 42C,Sa growth 42C second temp
C=CCN1C(=O)NC(=O)/C(=C/c2ccc(-c3cc([N+](=O)[O-])ccc3Cl)o2)C1=O,-58,99,nt,nt
CCOC(=O)c1c(C)n(Cc2ccccc2)c2ccc(O)cc12,-14,nt,100,90
CCCc1nc(-c2ccccn2)nc(OC(=O)N(C)C)c1Cc1c(F)cccc1Cl,-12,102,106,85
Fc1cccc(CN2CCN(Cc3ccccc3)CC2)c1,14,100,96,98
O=C1CC(c2c(F)cccc2Cl)c2c(c3ccccc3oc2=O)O1 (stereo unspecified),-6,99,116,97
N#CC1=C(N)Oc2c(c(=O)oc3ccccc23)C1c1cccc(Br)c1 (stereo unspecified),-14,101,nt,nt
O=C1CC(=O)N(c2ccccc2)C(=O)N1,-4,106,133,101
CCC(=O)N1N=C2C3CCN(CC3)[C@@H]2[C@@H]1c1cc(OC)ccc1OC,-17,101,nt,nt
CN(C)c1ccc(C2C3C=CC(C3)C2(C#N)C(=O)O)c(Br)c1 (stereo unspecified),-4,nt,119,97
CN1CCCCC1c1cccnc1N (stereo unspecified),-14,104,132,102
CNC(=O)Oc1ccccc1OCC(=O)NCc1ccccc1Cl,-4,99,91,81
O=C(NCc1ccccn1)c1cc2cccnc2n(Cc2ccccc2)c1=O,-29,107,nt,nt
COc1ccc(OCC(=O)N2CCN(Cc3cc(=O)n4nc(-c5ccccc5C)sc4n3)CC2)cc1,nt,108,98,99
CCN(C(=O)CN1CC=C(c2ccccc2)CC1)C1CCS(=O)(=O)C1 (stereo unspecified),-37,nt,81,82
Cc1ccc(S(=O)(=O)Cc2ccc(C(=O)N3CCC4(CC3)OCCO4)o2)cc1,nt,99,74,78

Next structures
Structure,HCMV NEC inh,GIV-Gai inh,Sa growth 42C,Sa growth 42C second temp
COc1ccc(Cl)cc1NC(=O)CN1C(=O)CN=C(c2ccccc2)c2cc(Cl)ccc21,-8,105,98,85
CNC(=O)Oc1cccc(C)c1,0,111,129,90
Cc1ccc(-n2c(/C=C/c3ccc(Br)s3)nc3ccccc3c2=O)cc1,nt,108,97,82
N#CC(C#N)=Cc1ccc(Sc2ccccc2)o1,-22,103,37,28
CN1C2CCC1CC(OC(=O)CCN1CCOCC1)C2 (stereo unspecified),nt,102,111,86
O=C(c1ccco1)c1cn(CCCOc2ccccc2)c2ccccc12,-29,99,81,71
O=c1c2ccccc2nc(-c2ccccc2)n1-c1ccccn1,-6,99,114,85
COC(=O)N(c1ccc(OC)cc1)P1(=S)OCCC(C)O1 (stereo unspecified),nt,107,101,104
Cc1nc2nc(-c3ccc(C(C)(C)C)cc3)nn2c(C)c1CC(=O)N1CCN(CCO)CC1,-15,102,nt,nt
O=C(COc1ccccc1F)N1CCN(Cc2cc(=O)n3nc(-c4ccccc4Cl)sc3n2)CC1,nt,112,91,97
CC(C)Sc1nc2ccccc2c(=O)n1-c1ccc(F)cc1F,3,nt,87,96
CN1CCc2cc3c(cc2C1O)OCO3 (stereo unspecified),-64,nt,95,89
NC(=O)c1ccc(OCC(O)CN2CC=C(c3ccc(F)cc3)CC2)cc1 (stereo unspecified),-2,104,nt,nt
CC1CN(C)CC(C)C1(O)c1ccccc1 (stereo unspecified),-3,nt,102,89
O=C1CN=C(c2ccc(F)cc2)c2cc(Br)ccc2N1,4,107,97,72

Next section:
Structure,HCMV NEC inh,GIV-Gai inh,Sa growth 42C,Sa growth 42C second temp
O=C(CNC(=S)N1CC2CC(C1)c1cccc(=O)n1C2)N1CCCC1 (stereo unspecified),-24,101,97,89
C=CCOc1ccc(/C=C2/C(=O)C3CCN2CC3)cc1,3,97,125,106
CCN1C[C@]2(OC(=O)c3ccccc3NC(C)=O)CC[C@H](OC)[C@@]34C2C[C@@H]([C@@H]13)[C@@]1(O)C[C@H](OC)[C@H]2CC4[C@]1(O)[C@H]2OC (stereo partly specified),-5,111,97,100
Cc1ccccc1CC#N,-20,nt,78,84
Fc1ccc(Sc2c(F)c(F)nc(N3CCNCC3)c2F)cc1,6,nt,110,97
CCN1CC=C(c2c[nH]c3ccccc23)CC1,nt,103,102,84
COc1cccc(-n2c(/C=C\c3ccc(Cl)cc3)nc3ccccc3c2=O)c1,-56,104,104,93
CCN(CC)C(=O)Oc1nc(-c2ccccn2)nc(COC)c1CC1CC1,-16,104,99,83
CC1CCCC(C)N1CC#CCO (stereo unspecified),0,105,101,100
C/C(=N\N=C(N)N)c1ccccc1,8,110,72,36
Cc1ccc2nc(NC(=O)c3cccn(Cc4ccc(Cl)cc4)c3=O)sc2c1,nt,101,106,87
Cc1cc2n(n1)C(c1cccnc1)Nc1ccccc1-2 (stereo unspecified),nt,97,104,79
NNC(=O)c1ccccc1,-2,nt,88,90
COC(=O)c1ccc(N2CCN(C)CC2)c(NC(C)=O)c1,-18,104,103,104
CNC(=O)Oc1ccc2sc(=O)oc2c1,-23,94,58,48

New compounds follow.
Structure,HCMV NEC inh,GIV-Gai inh,Sa growth 42C,Sa growth 42C second temp
CCCCc1ccc(NC(=O)c2cccn(Cc3ccc(Cl)cc3)c2=O)cc1,nt,102,93,91
COc1ccccc1NC1=NCC(C)S1 (stereo unspecified),-21,nt,98,86
COc1ccccc1CN1CCN(C(=O)COc2cccc(C)c2)CC1,6,101,100,101
Cc1ccsc1-c1nc(CSCC(=O)N2CCC3(CC2)OCCO3)c(C)o1,-6,101,113,88
Cc1ccc(C(C)N2CCNCC2)cc1C (stereo unspecified),-3,nt,104,98
C1CCN2C(C1)N1CCCCC1N1CCCCC21 (stereo unspecified),10,101,109,107
O=C(Cc1ccccc1)c1ccccc1,1,nt,91,94
CCOP(=S)(c1ccccc1)C(C#N)(CC)CC (stereo unspecified),1,nt,124,74
Cc1cc(C(=O)O)c(C)n1Cc1ccccc1,17,108,85,102
N#Cc1cc2c(nc1SCc1ccccc1F)C1CCN2CC1,-9,102,64,69
CCN(CC)c1ncnc2c1ncn2[C@@H]1O[C@H](COP(=O)(O)OP(=O)(O)C(Br)(Br)P(=O)(O)O)[C@@H](O)[C@H]1O,-9,104,nt,nt
CC(C)n1[nH]c(=O)c2c1NC(=O)CSC2c1ccccc1 (stereo unspecified),-11&-12,99&94,104,94
O=C(CN1CCCN(Cc2ccccc2)S1(=O)=O)NC1CCCC1,15,105,107,112
Cc1ccc(CCN2CC(C(=O)N3CCC4(CC3)OCCO4)CC2=O)cc1 (stereo unspecified),-29,104,106,97
CCc1ccc(CN2CCNCC2)cc1,-3,nt,111,87

The listing continues.
Structure,HCMV NEC inh,GIV-Gai inh,Sa growth 42C,Sa growth 42C second temp
COc1ccc(NC(c2c[nH]c3ccccc23)P2(=S)OCC(C)(C)CO2)cc1 (stereo unspecified),nt,104,107,103
O=C1C2CCC1C(N1CCCC1)CC2 (stereo unspecified),-13,106,96,87
CCN1CCN(C(=Nc2ccccc2)P(=S)(N(C)C)N2CCN(CC)CC2)CC1 (stereo unspecified),-28,nt,106,86
CC(=O)c1ccc(NC(=O)c2sc3nc4c(cc3c2N)N2CCC4CC2)cc1,-94,104,97,91
CC(=O)NC1CC2CCC(C1)N2 (stereo unspecified),7,105,91,107
Cc1nn(Cc2ccccc2Cl)c(C)c1C(=O)n1nnc2ccccc21,-18,nt,75,99
CCC12CN3CC(CC)(CN(C1)C3c1ccccn1)C2=O (stereo unspecified),-25,102,89,91
O=C(Nc1ccc2c(C(F)(F)F)cc(=O)oc2c1)c1cc(Cl)cc(Cl)c1,-19,104,109,90
CC1CC(C)CN(CC(=O)c2ccccc2Br)C1 (stereo unspecified),-6,nt,82,97
CN1CCc2c(C#N)c(Cl)nc(NCc3ccccc3)c2C1,-33,101,86,91
Cc1nnc(NC(=O)c2cccn(Cc3ccccc3)c2=O)s1,nt,106&103,129,91
CCn1c(SC)nnc1C1CCCNC1 (stereo unspecified),1,99,118,97
COc1ccc(CNC(=O)C(C)NC(C)=O)cc1 (stereo unspecified),0,nt,88,89
COc1ccccc1-n1c(SC)nc2ccccc2c1=O,-8,98,104,123
C=CCSc1nc(C)cc(C)c1C#N,-3,nt,111,89

Ordered by count of non-hydrogen atoms (low to high): some entries from above.
Structure,HCMV NEC inh,GIV-Gai inh,Sa growth 42C,Sa growth 42C second temp
CC(=O)NC1CC2CCC(C1)N2 (stereo unspecified),7,105,91,107
O=C1C2CCC1C(N1CCCC1)CC2 (stereo unspecified),-13,106,96,87
CCc1ccc(CN2CCNCC2)cc1,-3,nt,111,87
Cc1cc(C(=O)O)c(C)n1Cc1ccccc1,17,108,85,102
CC1CC(C)CN(CC(=O)c2ccccc2Br)C1 (stereo unspecified),-6,nt,82,97
CCC12CN3CC(CC)(CN(C1)C3c1ccccn1)C2=O (stereo unspecified),-25,102,89,91
CN1CCc2c(C#N)c(Cl)nc(NCc3ccccc3)c2C1,-33,101,86,91
N#Cc1cc2c(nc1SCc1ccccc1F)C1CCN2CC1,-9,102,64,69
O=C(CN1CCCN(Cc2ccccc2)S1(=O)=O)NC1CCCC1,15,105,107,112
O=C(Nc1ccc2c(C(F)(F)F)cc(=O)oc2c1)c1cc(Cl)cc(Cl)c1,-19,104,109,90
Cc1ccc(CCN2CC(C(=O)N3CCC4(CC3)OCCO4)CC2=O)cc1 (stereo unspecified),-29,104,106,97
CC(=O)c1ccc(NC(=O)c2sc3nc4c(cc3c2N)N2CCC4CC2)cc1,-94,104,97,91
CCN1CCN(C(=Nc2ccccc2)P(=S)(N(C)C)N2CCN(CC)CC2)CC1 (stereo unspecified),-28,nt,106,86
CCN(CC)c1ncnc2c1ncn2[C@@H]1O[C@H](COP(=O)(O)OP(=O)(O)C(Br)(Br)P(=O)(O)O)[C@@H](O)[C@H]1O,-9,104,nt,nt

(list continues)
Structure,HCMV NEC inh,GIV-Gai inh,Sa growth 42C,Sa growth 42C second temp
C[N+]1(Cc2ccccc2)CCCC1c1ccc(N)nc1 (stereo unspecified),-10,nt,77,96
CCCC1CN2CCC3=C(CCC3)C2(C)C1 (stereo unspecified),nt,105,104,91
Cc1ccc(-n2c(CN)nc3ccccc3c2=O)cc1,-39,nt,80,82
Cc1ccc(Cn2cccc(C(=O)Nc3cc([N+](=O)[O-])ccc3C)c2=O)cc1,nt,102,106,97
CC1CCN(Cc2ccc(NC(=O)CCc3nc(C4=CCN(C)CC4)no3)cc2)CC1,-18,98,79,90
C[C@]12CCC(=O)C=C1C=CC1C2CC[C@@]2(C)C1CC[C@@]2(O)CCC(=O)O (stereo partly specified),-38,nt,92,90
O=C(COc1ccc(Br)cc1)Nc1ccc(Cl)cc1C(=O)c1ccccc1,-40,106,99,86
Clc1ccc(CO/N=C(\Cn2ccnc2)c2ccc(Cl)cc2Cl)c(Cl)c1,-22&41,100,-0.4*,0.6*
CCSc1nnc(CCNC2CCCCC2)n1C,-3,104,99,88
CC(Cc1ccccc1)[n+]1cc(N)on1 (stereo unspecified),nt,100,77,93
CCC(N)C(O)c1ccc(O)c(O)c1 (stereo unspecified),-31,nt,98,93
CCCCCCCCCCNCCC (tested in a mixture with another compound),-70,nt,87,92
Cn1c(=O)[nH]c2nncnc2c1=O,78*,107,60,26
CC1=C(C(=O)OC(C)(C)C)C2(C(=O)Nc3ccccc32)C(C#N)=C(N)O1 (stereo unspecified),-42,99,91,91
CN(C)C(=O)Nc1cccc(OC(=O)N(C)C)c1,10,101,98,109

New compounds follow:
Structure,HCMV NEC inh,GIV-Gai inh,Sa growth 42C,Sa growth 42C second temp
CC1CN=C(NCc2ccncc2)S1 (stereo unspecified),-38,nt,114,88
Cc1cc(C(C)(C)C)cc(C)c1CCN,-31,nt,100,92
Cn1cccc1CNCCc1ccc(F)cc1,nt,109,113,89
COc1ccc(CN2C(=O)NC(=O)/C(=C\c3ccc(OC)c(OC)c3OC)C2=O)cc1,-12,103,nt,nt
Cc1[nH]c2cc3c(C(F)(F)F)cc(=O)[nH]c3cc2c1C,-24,nt,81,80
Cc1cc(OC(=O)N(C)C)cc(=O)n1C,-2,106,110,92
CN1CCC2(CC1)N1CC3(C)CN2CC(C)(C1)C3O (stereo unspecified),-25,104,97,81
N#Cc1ccc(OCC(=O)N2CCN(C/C=C/c3ccccc3)CC2)cc1,11,nt,92,98
C(=NC12CN3CN(CN(C3)C1)C2)c1cccnc1,nt,105,116,83
CC1(C)CC2=NN(c3ccccc3)P(=S)(Nc3nccs3)C2=C(N2CCCC2)C1 (stereo unspecified),-30,nt,80,86
Oc1cc(Cl)ccc1Oc1ccc(Cl)cc1Cl,-39&-47,nt,-0.7*,-0.6*
N#C/C(=C\C(=O)O)c1ccccc1,-19,95,nt,nt

Structures above that contain a thiophene ring, fused or not (3):
Structure,HCMV NEC inh,GIV-Gai inh,Sa growth 42C,Sa growth 42C second temp
Cc1ccc(-n2c(/C=C/c3ccc(Br)s3)nc3ccccc3c2=O)cc1,nt,108,97,82
Cc1ccsc1-c1nc(CSCC(=O)N2CCC3(CC2)OCCO3)c(C)o1,-6,101,113,88
CC(=O)c1ccc(NC(=O)c2sc3nc4c(cc3c2N)N2CCC4CC2)cc1,-94,104,97,91

Some of the compounds tested; the hit share may differ from the screen's.
